HIV TAR-Tat: TAR RNA-Tat peptide displacers, HIV-1, primary screen, biochemical, FRET, FAM/TAMRA-labeled Tat. HIV-1 TAR RNA, Tat peptide displacement FRET; active compounds read high. z-score (concentration not given with the values). actives 0.6% (n = 100,000);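 also: score is relative to mean and SD of negative controls; some compounds called inactive have numbers as strong as hits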
CDC25B CDK2 inh: primary biochemical HTRF screen for blockers of M-phase inducer phosphatase 2 binding to CDK2/cyclin A; z-score (no concentration beside the values); actives 0.72% (n = 94,000); HTRF CDC25B-CDK2/CyclinA binding, anti-His/anti-Flag; active compounds read high;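 also: score is relative to mean and SD of negative controls; strong numbers were not always called active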
The depositor's hits bear a star; . = no result given.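 The calls were made as follows: active = z-score from 3 up in half or more of its runs; inactive = the rest.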 Hits appear at their usual frequency (roughly 0.9% active in at least one column).

SMILES | HIV TAR-Tat | CDC25B CDK2 inh
O=C(CSc1ccc2nnc(-c3ccc(F)cc3)n2n1)NCc1ccc2c(c1)OCO2 | . | -1.2
Cc1nnsc1C(=O)Nc1c(C(=O)Nc2cccc(Cl)c2)oc2ccccc12 | 0.23 | 0.14
O=C(CSc1nccn1Cc1ccc2c(c1)OCO2)Nc1nc2ccccc2s1 | 0.73 | .
Cc1cc(C)c2c(=O)cc(CN3CCN(C(=O)c4cccs4)CC3)[nH]c2c1 | 0.48 | .
COc1ccc(N2CCN(c3nc(NCCc4ccc(OC)c(OC)c4)nc(OC)n3)CC2)cc1 | . | -1.9
CCOC(=O)N1CCC(c2cc(=O)n3[nH]ccc3n2)CC1 | 1 | -2.4
O=C(Nc1ccc2c(c1)OCO2)N1CCN2CCCCC2C1 (configuration not stated) | 0.42 | .
CCCCC[C@H](CC(=O)O)C(=O)O | 1.8 | .
CC[C@H]1OC(=O)C[C@@H](O)[C@H](C)[C@@H](O[C@@H]2O[C@H](C)[C@@H](O[C@H]3C[C@@](C)(O)[C@@H](O)[C@H](C)O3)[C@H](N(C)C)[C@H]2O)[C@@H](CC=O)C[C@@H](C)C(=O)/C=C/C(C)=C/[C@@H]1CO[C@@H]1O[C@H](C)[C@@H](O)[C@@H](OC)[C@H]1OC | 2.1 | .
CN1CCN(C(=O)C2CCN(c3ccc(Cl)cc3)C2=O)CC1 (configuration not stated) | 0.27 | .
CCCCOc1ccc(C2c3c(oc4ccccc4c3=O)C(=O)N2c2nnc(C)s2)cc1OCC (configuration not stated) | 0.24 | -0.78
CCc1nc2ccccc2c(=O)n1CCCCn1c(CC)nc2ccccc2c1=O | . | -2.2
O=C1N(Cc2cccc(Cl)c2)C2CS(=O)(=O)CC2N1c1ccccc1 (configuration not stated) | 1.5 | -2.1
Cc1nc2ccc(S(=O)(=O)NC(C(=O)NCc3cccs3)C(C)C)cc2s1 (configuration not stated) | 0.82 | -0.76
CCSc1nnc(NC(=O)CSC2=NN3CCCC(=O)N=C3S2)s1 | . | -1
COc1cc(C(=O)n2ncc(C(C)=O)c2C)cc(OC)c1OC | . | -3
C=CCSc1nc(=O)c2c(n1C)NC(=O)CC2c1ccc(F)cc1F (configuration not stated) | 0.74 | 1
Fc1cccc(-c2nn3c(C4COc5ccccc5O4)nnc3s2)c1 (configuration not stated) | 1.2 | 1
CC(C)Cc1ccc(S(=O)(=O)NCc2cccn2Cc2cccc(F)c2)cc1 | 0.44 | .
NS(=O)(=O)c1ccc(CCNc2nc3c(-c4ccc(Cl)cc4)nnn3c3ccccc23)cc1 | -0.48 | -0.89
O=S(=O)(c1ccccc1)n1ccc(-c2ccc3c(c2)CCO3)n1 | . | -2
CC(C)(C)NC(=O)c1oc2ccccc2c1NC(=O)c1cccs1 | 1.7 | .
Cn1cccc1CNC(=O)c1cc(F)cc2c1OCOC2 | . | -0.49
O=C(Cn1cc2c(n1)CCCC2)Nc1ccc(F)cc1 | . | -0.53
CC1CCN([C@H]2CS(=O)(=O)C[C@@H]2S(=O)(=O)c2ccccc2)CC1 | -0.55 | -0.3

(list continues)
SMILES | HIV TAR-Tat | CDC25B CDK2 inh
O=C(Cn1ncn2nc(-c3ccco3)cc2c1=O)N1CCOCC1 | -0.31 | -1
Cc1nc2sc(C(c3cccs3)N3CC(C)OC(C)C3)c(O)n2n1 (configuration not stated) | . | -1.5
COc1ccc(-n2nnnc2C2CCN(S(=O)(=O)c3cccs3)CC2)cc1 | -0.38 | -1.8
CCc1cc(C(=O)NCc2cccs2)no1 | 1.6 | 2.6
CCOC(=O)CNc1nc2ccccc2n2cnnc12 | 0.51 | -0.72
Cc1cc(=S)cc(C)n1Cc1ccco1 | . | 2.7
CCCc1nnc2c3c4c(sc3ncn12)CC(C)CC4 (configuration not stated) | 2.3 | -0.92
COc1ccc(S(=O)(=O)N(C(=O)C(C)C)c2ccc3oc(=O)sc3c2)cc1OC | 0.42 | -3.4
CCN1c2cc(C)ccc2-n2cccc2C12CCN(C(=O)NCc1ccc(F)cc1)CC2 | 0.27 | .
CN1C(=O)C2(c3ccccc31)C(C(=O)Nc1ccccc1F)CC1CCCN12 (configuration not stated) | -0.55 | .
COc1ccc(C2CC(=O)c3ccc(OC)cc3O2)cc1 (configuration not stated) | -1.2 | .
Cc1cc(C)cc(N2C(=O)N(Cc3ccccc3C)C3CS(=O)(=O)CC32)c1 (configuration not stated) | 1.4 | .
COCCCNC(=O)C1CCCN(c2ncnc3onc(C)c23)C1 (configuration not stated) | 1.1 | .
CCOc1ccc(-c2nc(C#N)c(N3CC(C)CC(C)C3)o2)cc1 (configuration not stated) | -0.62 | -0.47
NNC(=O)c1[nH]c2ccc([N+](=O)[O-])cc2c1-c1ccccc1 | . | -0.62
Nc1nc(=S)c2[nH]cnc2[nH]1 | 2.6 | .
CCCc1cc(=O)n2[nH]c(NC(=O)C(C)(C)C)nc2n1 | 1.9 | -1.1
Cn1c(=O)c2c(nc(N3CCCC3)n2CCCc2ccccc2)n(C)c1=O | . | 0.66
O=S(=O)(NCCc1nnc2ccc(SCc3ccc(F)cc3)nn12)c1ccccc1 | 2.3 | .
CCOC(=O)C1=C(N)OC2=C(C(=O)CCC2)C1c1ccc2c(c1)OCO2 (configuration not stated) | . | -0.48
O=C(Nc1ccc(Cl)cc1)C1CCN(c2ccccc2)C1=O (configuration not stated) | -1.2 | .
CCN(CC)S(=O)(=O)c1cc(C(=O)Nc2cccc(C(=O)O)c2)ccc1C | . | -1.6
CSc1nc2c(c(=O)[nH]1)C(c1ccc(C)cc1C)CC(=O)N2 (configuration not stated) | 0.94 | -1.3
O=C(CSc1ncn[nH]1)Nc1nccs1 | 1.1 | -0.13
O=C(Nc1nnc(SCc2cc(=O)c3cccc(F)c3[nH]2)s1)c1ccc(F)cc1 | 0.46 | .

Later entries
SMILES | HIV TAR-Tat | CDC25B CDK2 inh
COc1cccc(C2N=C(N)Nc3nc4ccccc4n32)c1OC (configuration not stated) | 0.59 | -2
O=C(C1CCC(=O)N1S(=O)(=O)c1ccccc1)N1CCN(C2CCCCC2)CC1 (configuration not stated) | 1.6 | .
O=C(Cc1ccccc1)Nc1c(C(=O)c2ccccc2)oc2ccccc12 | 1.4 | 0.22
CC1(C)Cc2c(c(N3CCOCC3)nc3sc4c(N(CCO)CCO)ncnc4c23)CO1 | . | -1.7
COC(=O)c1c(-c2cccs2)csc1NC(=O)COc1ccccc1OC | -2 | 1
O=c1c2cn(Cc3ccccc3F)c3ccc(F)cc3c-2nn1Cc1cccc(F)c1 | -1.2 | .
CC1CCc2c(sc3nnn(CC(=O)OC4CCCC4)c(=O)c23)C1 (configuration not stated) | 1.6 | -1.8
CCN1CCCC1CNC(=O)C1CCN(c2nnc(N3CCCC3=O)s2)CC1 (configuration not stated) | -2.5 | -1.3
Cc1ccc(S(=O)(=O)N2CCCC3(CCCCC3)C2)cc1 | 1.6 | 1
CCCCN(Cc1ccco1)C(=O)c1cc2c(=O)n(CC)c3ccccc3c2s1 | -1.2 | -1.3
O=C(Nc1ccc2oc(-c3ccccc3F)nc2c1)c1ccc([N+](=O)[O-])o1 | -0.09 | -0.76
COc1ccc(S(=O)(=O)n2ccnc2)cc1C | 0.29 | -1.7
CCc1nc(SCc2cc(=O)n3nc(C4CC4)sc3n2)n[nH]1 | 1.6 | .
O=C(CSc1ncnc2c1oc1ccccc12)N1CCCc2ccccc21 | . | 1.2
O=C(O)C1CC(=O)N(c2ccc(Oc3ccccc3)cc2)C1 (configuration not stated) | 2.4 | -0.41
Nc1[nH]c(=O)nc2nc[nH]c12 | . | -2.2
CC(C)C(=O)Nc1ccc2oc(-c3ccncc3)nc2c1 | 1.2 | -1.5
O=C(NCCc1ccc(Cl)cc1)c1cc2c(s1)CSC2 | 0.16 | .
CC1CCCC(NC(=O)CSCc2cnn(-c3ccccc3)c2-n2cccc2)C1C (configuration not stated) | 0.7 | -0.25
Cc1cc(NC(=O)CSc2nnc(Cn3c(=O)sc4ccccc43)n2C)no1 | . | -1.3
CCSc1nn2c(=O)cc(COc3cc(C)ccc3C)nc2s1 | 7.7* | 1.1
Cc1cc(NC(=O)Cn2cnc(S(=O)(=O)N3CCCCC3)c2)no1 | 0.96 | .
CC1CC(C)CN(CCCNC(=O)CN(C)c2nnc(N3CCCC3=O)s2)C1 (configuration not stated) | 1.3 | -1.7
COc1cccc(N2C(=O)c3cccnc3C2Nc2ccc(F)c(Cl)c2)c1 (configuration not stated) | 0.69 | -0.51
COc1cc(OC)c(Nc2nc3ccc(C)cc3n3nnnc23)cc1Cl | -1.1 | .

Retrieved one by one from the list above, three records:
SMILES | HIV TAR-Tat | CDC25B CDK2 inh
COc1cccc(N2C(=O)c3cccnc3C2Nc2ccc(F)c(Cl)c2)c1 (configuration not stated) | 0.69 | -0.51
COC(=O)c1c(-c2cccs2)csc1NC(=O)COc1ccccc1OC | -2 | 1
O=C(O)C1CC(=O)N(c2ccc(Oc3ccccc3)cc2)C1 (configuration not stated) | 2.4 | -0.41

The listing continues.
SMILES | HIV TAR-Tat | CDC25B CDK2 inh
O=C(Nc1cccc(F)c1)c1cc2cc3ccc(Cl)cc3nc2o1 | 1.6 | .
Cc1nc(-c2ccccn2)n2nnnc2c1Cl | . | -1.6
C=CCNC(=O)COCc1cc(-c2cccs2)on1 | 0.46 | .
CCc1ccc(-c2c(C#N)c(N)nc3c2CCCCC3)s1 | 1.9 | -0.94
Cc1noc(C)c1S(=O)(=O)N1CCC(C(=O)N2CCN(c3ccc(F)cc3)CC2)CC1 | . | 0.78
O=C(NCCN1CCOCC1)c1cc2ccc3cccnc3c2[nH]1 | 0.11 | .
N#Cc1nc(/C=C/c2cccs2)oc1NCCc1ccccc1 | 1.7 | 1.4
O=S(=O)(c1ccc(Cl)cc1)c1nc(-c2ccccc2Br)oc1N1CCOCC1 | 1.5 | -0.87
CC1CC(C)CN(CCCNc2ncnc3onc(-c4ccc(Cl)cc4)c23)C1 (configuration not stated) | 0.23 | -1.2
Cc1ccc2nc(C3=C(O)CN(c4ccc(C(=O)O)cc4)C3=N)[nH]c2c1 | 2.1 | -5.8
Cc1ccccc1CN1C=NS(=O)(=O)c2ccccc21 | 1.4 | .
N#Cc1c(N)n(-c2ccc(O)cc2)c2nc3ccccc3nc12 | 2.8 | -1.8
O=C(Nc1ccc2sc(NC(=O)C3CCCCC3)nc2c1)NC1CCCC1 | -0.85 | .
COc1ccc(C2=Nc3ccc(F)cc3NC(c3ccncc3)=N2)cc1 | 0.6 | -1.6
CCOCCn1cnc2sc(C(=O)Nc3c(F)cc(F)cc3Br)c(C)c2c1=O | 0.09 | .
CN(C)CCCN1C(=O)C(O)=C(C(=O)c2ccco2)C1c1ccccc1 (configuration not stated) | 1.3 | -2.2
CC12COC3(C(=O)Nc4ccccc4)CC1CCC32C (configuration not stated) | . | -0.11
COc1cc(C2N3CC4(C)CN2CC(C)(C3)C4O)ccc1O (configuration not stated) | . | -4.3
O=C(NCCc1ccco1)C1CCCN(c2nn3c(=O)c4c(nc3s2)CCCC4)C1 (configuration not stated) | 2.2 | .
CCOc1cc2oc(C)c(Oc3ccccc3)c(=O)c2cc1CC | . | -0.69
CC(=O)N1CCOc2ccc(S(=O)(=O)NC3CCCC3)cc21 | 1.5 | 0.02
Cc1cc(N2CCCC2)nc(N2CCN(S(=O)(=O)c3ccc4nc(C)sc4c3)CC2)n1 | 0.83 | .
COc1cccc2c1OC(c1ccc(F)cc1)N1N=C(c3ccccc3O)CC21 (configuration not stated) | -2.1 | 0.28
COc1ccc(CC(=O)N2c3ccccc3Sc3ccccc32)cc1OC | . | 1.2
O=C(Nc1nccs1)c1cc2c(s1)-c1ccc(Cl)cc1S(=O)(=O)C2 | 0.36 | -1.2

7 compounds out of the list, arranged by length of the SMILES, low to high:
SMILES | HIV TAR-Tat | CDC25B CDK2 inh
Cc1nc(-c2ccccn2)n2nnnc2c1Cl | . | -1.6
C=CCNC(=O)COCc1cc(-c2cccs2)on1 | 0.46 | .
CC12COC3(C(=O)Nc4ccccc4)CC1CCC32C (configuration not stated) | . | -0.11
CCc1ccc(-c2c(C#N)c(N)nc3c2CCCCC3)s1 | 1.9 | -0.94
O=C(Nc1cccc(F)c1)c1cc2cc3ccc(Cl)cc3nc2o1 | 1.6 | .
Cc1ccc2nc(C3=C(O)CN(c4ccc(C(=O)O)cc4)C3=N)[nH]c2c1 | 2.1 | -5.8
Cc1noc(C)c1S(=O)(=O)N1CCC(C(=O)N2CCN(c3ccc(F)cc3)CC2)CC1 | . | 0.78

Continuation:
SMILES | HIV TAR-Tat | CDC25B CDK2 inh
COc1ccc2nc(Nc3nc(CSc4ccc(Cl)cc4)cc(=O)[nH]3)nc(C)c2c1 | 0.52 | -0.88
O=C(CN1C2=NCCN2c2ccccc21)c1ccc(Cl)cc1 | -1.4 | -1.1
COCCCNC(=O)CCCn1c(=O)c2cccn2c2cccnc21 | -0.76 | .
CCOC(=O)c1c(C)[nH]c(C)c1S(=O)(=O)NCCN1CCOCC1 | 0 | .
CC(=O)ON(CC(=O)Nc1ccccc1C(=O)c1ccccc1)C(C)=O | . | -2.3
c1ccc(CN2CCN(Cn3nnc4ccccc43)CC2)cc1 | . | -2.9
